# Source: PubChem
# VDR inh: Inhibitors of the vitamin D receptor (VDR): qHTS; Vitamin D3 receptor (Homo sapiens), P11473; VDR-SRC2-3 peptide fluorescence polarization, 2 h; Potency, µM, inactives show max response, negative = inhibition, most hits filed as inhibitors; hit rate 0.93% among 400,000; AID 504847, 2011; active means well fitted inhibition curve with a large enough effect; inconclusive means small, poorly fitted or top-dose-only effect, or another doubt; inactive means no such curve, though single readings can be large or run the other way; further: series mostly up to about 120 µM
# Target sequence (P11473 whole entry, looked up): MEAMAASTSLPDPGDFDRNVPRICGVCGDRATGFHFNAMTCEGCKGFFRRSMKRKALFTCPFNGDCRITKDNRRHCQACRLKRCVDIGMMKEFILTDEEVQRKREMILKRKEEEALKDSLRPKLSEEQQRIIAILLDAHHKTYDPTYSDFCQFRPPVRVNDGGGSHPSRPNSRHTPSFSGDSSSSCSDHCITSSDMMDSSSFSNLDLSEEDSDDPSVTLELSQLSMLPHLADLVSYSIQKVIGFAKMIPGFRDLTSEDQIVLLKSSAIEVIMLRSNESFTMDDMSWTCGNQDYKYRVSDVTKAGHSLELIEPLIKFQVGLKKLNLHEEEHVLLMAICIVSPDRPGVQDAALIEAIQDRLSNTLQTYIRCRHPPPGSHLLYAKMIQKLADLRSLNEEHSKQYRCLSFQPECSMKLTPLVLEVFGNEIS
#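 The screen uses fluorescence polarization to detect compounds that interfere with recruitment of the SRC2-3 coactivator peptide to VDR; plates are read after 2 h at room temperature.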
# * marks the source's active call; other numbers are inactive results; ? = inconclusive; & = joins results of further samples. On the % scale 0 is the no-effect control and ±100 the full control effect; potency means the concentration at half of the fitted maximal effect.
SMILES,VDR inh
COc1ccc2c(c1)OC1=C(C(=O)CCC1)C2C1=C(O)CCCC1=O (stereo not given),-22%
O=c1[nH]cnc2c1c(-c1ccccc1)cn2-c1ccc(Br)cc1,-21%
Cc1ccccc1NC(=S)N(C)Cc1cccs1,0%
CC1CN(C(=O)COC(=O)c2cc(Cl)ccc2[N+](=O)[O-])CC(C)O1 (stereo not given),-14%
CN(CC(=O)Nc1cccc(F)c1)C(=O)c1cn(-c2ccccc2)nc1-c1ccc(Cl)cc1,2%
N#Cc1cccc(NC(=O)COC(=O)c2cccc(N3C(=O)c4ccccc4C3=O)c2)c1,-1%
Cc1cccc(-n2cccc2)c1C#N,0%
CN(C(=O)Cc1c(C(=O)O)n(C)c2ccccc12)c1ccc(Cl)cc1,-3%
CC(C)(C)Cc1nnc(NC(=O)CN2C(=O)c3ccccc3C2=O)s1,-3%
CCc1nccn1CCC(=O)N1CCCC(Nc2ccc(F)cc2)C1 (stereo not given),3%
COc1ccc(CCNC(=O)c2cc(-c3ccc(C)c(C)c3O)n[nH]2)cc1OC,6%
COC(=O)c1ccccc1NC(=O)C1CC(c2ccc(F)cc2)=NO1 (stereo not given),3%
CCN(C[C@H]1N[C@@](Cc2ccccc2)(C(=O)OC)[C@H]2C(=O)N(Cc3ccccc3)C(=O)[C@@H]12)S(=O)(=O)c1ccc(C(F)(F)F)cc1,-3%
COc1ccc(C(=O)NCCS(=O)(=O)N2CCOCC2)cc1,2%
Cc1ccc(CN2C(=O)C3(SCC(=O)N3c3ccc(C)c(C)c3)c3ccccc32)cc1 (stereo not given),8%
COc1ccc(NC(=O)c2ccc3c(c2)S(=O)(=O)c2ccccc2C3=O)cc1,2%
CCCC(=O)Nc1ncnc2c1ncn2[C@@H]1O[C@@H]2COP(=O)(O)O[C@H]2[C@H]1OC(=O)CCC,-21%&-20%&-1%&-2%
CC(NS(=O)(=O)c1ccc2c(c1)C(=O)c1cc(S(=O)(=O)NC(C)C(=O)O)ccc1-2)C(=O)O (stereo not given),5%
CSc1ccc(S(=O)(=O)N(CC(=O)NCc2ccccn2)c2ccc(C)cc2)cc1,?
COc1ccccc1C(=O)Nc1ccccc1C(=O)N1CCCC1,15%
C=C(C)CSc1cc(C)c(C#N)c2nc3ccccc3n12,-17%
Cn1c(CC(=O)NNC(=O)c2ccc(Cl)nc2)nc2ccccc21,-11%
COc1cc(OC)cc(C(=O)Nc2ccccc2S(=O)(=O)N2CCCC2OC(C)=O)c1 (stereo not given),2%
Cn1c(=O)c2c(nc(SCc3nc(N)nc(N4CCCCC4)n3)n2C)n(C)c1=O,15%
CCOC(=O)C1=CN(Cc2ccco2)S(=O)(=O)N(CC)C1c1ccc(C(F)(F)F)cc1 (stereo not given),?

# An excerpt from above in order of SMILES length, smallest number first.
SMILES,VDR inh
Cc1cccc(-n2cccc2)c1C#N,0%
C=C(C)CSc1cc(C)c(C#N)c2nc3ccccc3n12,-17%
COc1ccccc1C(=O)Nc1ccccc1C(=O)N1CCCC1,15%
COc1ccc(C(=O)NCCS(=O)(=O)N2CCOCC2)cc1,2%
Cn1c(CC(=O)NNC(=O)c2ccc(Cl)nc2)nc2ccccc21,-11%
COC(=O)c1ccccc1NC(=O)C1CC(c2ccc(F)cc2)=NO1 (stereo not given),3%
CC(C)(C)Cc1nnc(NC(=O)CN2C(=O)c3ccccc3C2=O)s1,-3%
COc1ccc2c(c1)OC1=C(C(=O)CCC1)C2C1=C(O)CCCC1=O (stereo not given),-22%
CN(C(=O)Cc1c(C(=O)O)n(C)c2ccccc12)c1ccc(Cl)cc1,-3%
COc1ccc(NC(=O)c2ccc3c(c2)S(=O)(=O)c2ccccc2C3=O)cc1,2%
Cn1c(=O)c2c(nc(SCc3nc(N)nc(N4CCCCC4)n3)n2C)n(C)c1=O,15%
COc1cc(OC)cc(C(=O)Nc2ccccc2S(=O)(=O)N2CCCC2OC(C)=O)c1 (stereo not given),2%
CN(CC(=O)Nc1cccc(F)c1)C(=O)c1cn(-c2ccccc2)nc1-c1ccc(Cl)cc1,2%
CC(NS(=O)(=O)c1ccc2c(c1)C(=O)c1cc(S(=O)(=O)NC(C)C(=O)O)ccc1-2)C(=O)O (stereo not given),5%
CCCC(=O)Nc1ncnc2c1ncn2[C@@H]1O[C@@H]2COP(=O)(O)O[C@H]2[C@H]1OC(=O)CCC,-21%&-20%&-1%&-2%

# Next part
SMILES,VDR inh
CC(=O)C1=C(O)CCC1=N,1%
COc1ccc(/C=C(/NC(=O)c2ccco2)C(=O)N2CCc3ccccc32)cc1OC,10%
O=C(NC1=NCCS1)c1cccs1,6%
Cc1ccc(S(=O)(=O)N(CCO)c2cc3c(s2)CCCC3)cc1,1%
O=C(NNc1ccnc2cc(Cl)ccc12)C1CCCCC1,-19%
O=C(CC1C[C@H](C(=O)N2CCCCC2)[C@@]2(CCc3ccccc3)c3[nH]c4ccccc4c3CCN2C1=O)NCCCn1ccnc1 (stereo not given in full),-24%
CC1=CN2C(=N)/C(=C\c3cn(CCCOc4ccccc4)c4ccccc34)C(=O)N=C2S1,?
COC(=O)Cn1c2ccc(F)cc2c2nc(C)sc21,79µM*
CNC(=O)c1sc(-c2ccccn2)nc1C,2%
O=C(Cc1ccccc1)Nc1cc2c(cc1Cl)OCCCO2,-9%
CSc1ccc(S(=O)(=O)NCC(=O)OCC(=O)NCc2ccco2)cc1[N+](=O)[O-],-14%
CCCCn1c(N)c(N(C)C(=O)c2ccc(-n3cccn3)cc2)c(=O)[nH]c1=O,21%
Cc1ccccc1NC(=O)COC(=O)c1ccc2c(c1)OCCO2,6%
Cc1ccc(S(=O)(=O)Nc2cccc3c2O[C@H](CN(C)Cc2ccc(-c4ccccc4)cc2)[C@@H](C)CN([C@H](C)CO)C3=O)cc1,-1%
O=C(CN1CCC(NC(=O)c2ccccc2)CC1)NCc1ccccc1F,-6%
COc1ccc(CCNC(=O)c2ccc(-c3ccc([N+](=O)[O-])cc3Cl)o2)cc1OC,-17%
Cc1[nH]nc2c1C1(CCOC1C)C(C#N)=C(N)O2 (stereo not given),-1%
COc1ccc(NC(=O)CSc2nc3ccc(OC)cc3[nH]2)cc1,21%
Cc1ccc[n+](CC(=O)Nc2ccc(N(C)C)cc2)c1,-21%
O=C1c2ccccc2S(=O)(=O)c2cc(C(=O)N3CCC(N4CCCC4)CC3)ccc21,-12%
Cc1c(NC(=O)c2ccc(COc3ccc4ccccc4c3)o2)c(=O)n(-c2ccccc2)n1C,-2%
COc1ccccc1NC(=O)Cn1nnc(-c2ccccc2NC(=O)c2ccco2)n1,6%
Cc1cccc(C)c1Nc1oc(-c2ccccc2)nc1-c1cccc2ccccc12,0%
CCOc1ccc(OCC)c(NC(=O)C2CCCN(S(=O)(=O)c3cc(Br)cc4c3N(C(=O)CC)CC4)C2)c1 (stereo not given),-6%
CCOc1cccc(-c2nn3c(-c4cc(C)[nH]n4)nnc3s2)c1,-4%&-10%
# (continued)
SMILES,VDR inh
FC(F)(F)c1ccccc1CN1CCN(C2CCCCCC2)CC1,1%
CC(C)c1nnc(NC(=O)CCC(=O)NCc2ccc3c(c2)OCO3)s1,7%
O=C(O)CCC(=O)N1CCN(c2ccccn2)CC1,-5%
Cc1cc(C)cc(NC(=O)CN2CCc3ccccc3C2)c1,9%
COc1ccc(N(C(=O)C(C)C)S(=O)(=O)c2cccc3cccnc23)cc1,-5%
CS(=O)(=O)N(CC(=O)N1CCc2ccccc2C1)c1ccc(Cl)cc1F,-11%
CCCCCCCCCCCCCCC[C@@H](O)[C@H](CO)NC(=O)CCCCCCC,3%&-1%
COC[C@H]1O[C@@H](c2c(OC)cc(OC)cc2OC)[C@H](OC)[C@@H](OC)[C@@H]1OC,1%
CC(C(=O)NC1CCCCC1)N(Cc1ccccc1)C(=O)c1snc(C(N)=O)c1N (stereo not given),-22%
O=C(CN1C(=O)COc2ccc(S(=O)(=O)N3CCOCC3)cc21)N1CCN(c2ccccc2)CC1,6%
Cc1ccc(S(=O)(=O)N2CCN(c3nc(-c4ncco4)nc4ccccc34)CC2)cc1,?
Cc1cc(-c2n[nH]c(=S)n2-c2ccc(F)cc2)nn1C,14%
CCOC(=O)c1c[nH]n2c(=O)cc(C)nc12,-15%
CCC(=O)Nc1cnc(NC(=O)c2cccc(F)c2)cc1C,-4%
CCOc1ccc(NC2c3ccccc3C(=O)N2c2ccc(Cl)cn2)cc1 (stereo not given),3%
O=C(NC1(C(F)(F)F)N=C2SCCN2C1=O)C1CCCCC1 (stereo not given),-4%
O=C(CCc1c[nH]c2ccccc12)NCCc1ccccc1,-3%
C#CCn1c(=NC(=O)c2cccs2)sc2cccc(OCC)c21,-3%
COc1ccc(CCN2C(=O)C3CC(C)=C(C)CC3C2=O)cc1OC (stereo not given),14%
Cc1c(C(=O)O)sc2c1c(=O)n(Cc1ccccc1)c(=O)n2C,4%
COc1ccc(C2c3c(ncn(CCCO)c3=N)Oc3ccc4ccccc4c32)cc1 (stereo not given),-17%
COc1ccc(C(=O)Nc2ccc(C(=O)OCc3cc(=O)n4nc(C5CC5)sc4n3)cc2)cc1,7%
Cc1cccc(NC(=O)c2cccc3c2C(=O)c2ccccc2-3)c1,-3%
CC(C(=O)Nc1nnc(C2CC2)s1)N1C(=O)C2CC=CCC2C1=O (stereo not given),-9%
CCOc1ccc(N2C(=O)CC(N3CCC(O)(c4ccc(Br)cc4)CC3)C2=O)cc1 (stereo not given),5%
# Going on with the list.
SMILES,VDR inh
CCc1ccc(NC(=O)CSc2nc3ccccc3nc2N2CCCCC2)cc1,-14%
O=C(Nc1ccc(C(=O)O)cc1)/C(=C\c1cccc([N+](=O)[O-])c1)NC(=O)c1ccc(Br)o1,4%
COc1ccc(-c2cnnn2-c2ccc(NC(=O)c3ccc(S(=O)(=O)N4CCCCC4)cc3)cc2)cc1OC,0%
Cc1ccccc1OCC(=O)Nc1ccc(C)c(S(=O)(=O)N2CCCCCC2)c1,-2%
COc1cccc(OCCSc2nc3ccccc3n2CC(=O)N2CCCCC2)c1,10%
Brc1ccc(-c2c[n+]3c(n2-c2ccccc2)SCC3)cc1,-6%
CC(=O)[C@@]1(O)[C@H](C)CC2C3CC=C4CC(OP(=O)(O)O)CC[C@]4(C)C3CC[C@@]21C (stereo not given in full),-9%
COc1ccc(-c2noc(CCC(=O)N3CCN(c4cccc(F)c4)CC3)n2)cc1,-8%
Cc1nnc2n(c1=O)N=C(c1ccc(Cl)cc1)CS2,?
C(=C\c1nc(N2CCCCCC2)c2ccccc2n1)/c1ccccc1,-15%
O=C(NC(Cc1c[nH]c2ccccc12)C(=O)O)c1ccc2c(c1)OCO2 (stereo not given),5%
COc1ccc(CCC(=O)N(C)CC(=O)Nc2cc(C)ccc2C)cc1,-2%
O=C(O)C1CCCN(S(=O)(=O)c2cccs2)C1 (stereo not given),-1%
COc1ccc(C(=O)COC(=O)c2ccco2)cc1,13%
COc1cccc(C(=O)NOCc2ccc(C)cc2)c1OC,-13%
O=C(Nc1ccc(F)cc1)Nc1ccc2c(c1)CCC2,12%
Cc1ccccc1C(=O)N1CCN=C1SCc1ccc([N+](=O)[O-])cc1,-9%
CCOC(=O)C1CCCN(CC(O)COc2ccc(OC)cc2C(C)(C)C)C1 (stereo not given),-2%
CCCOC(=O)C(C)Sc1n[nH]c(=O)[nH]c1=O (stereo not given),4%
O=C(NP(=O)(N1CCOCC1)N1CCOCC1)C1=C(N2CCOCC2)/C(=C\c2ccccc2)CC1,?
CCN(CC)C(=O)Oc1cc2c(-c3cc4cccc(OC)c4o3)cc(=O)oc2cc1C,27%
COc1ccccc1C(=O)C1CCCN(C(=O)CCn2cnnn2)C1 (stereo not given),-14%
NS(=O)(=O)c1cccc(NC(=O)COC(=O)CCC2CCCC2)c1,12%
COC(=O)C1(C(F)(F)F)N=C(N(C)C)OC(N(C)C)=N1,16%
NC(=O)C1CCN(C(=O)c2ccc(CS(=O)(=O)c3c(Cl)cccc3Cl)o2)CC1,-12%
# The results go on:
SMILES,VDR inh
CC(C)n1c2ccccc2c2nnc(SCC(=O)OCN3C(=O)c4ccccc4C3=O)nc21,10%
FC(F)(F)c1ccccc1/C=N/N1CCN(Cc2ccccc2)CC1,-4%
O=C1c2ccccc2C(=O)N1CCC(c1ccccc1)c1ccco1 (stereo not given),?
CC(=O)NC1=NN(C(C)=O)C(c2cccc([N+](=O)[O-])c2)S1 (stereo not given),-12%
COCCN(C(=O)COC(=O)c1cc2c(s1)CCCC2)c1c(N)n(Cc2ccccc2)c(=O)[nH]c1=O,-14%
COc1cccc(C(=O)N2c3ncnn3C3(CCCCC3)[C@@H]3CCCC[C@@H]32)c1,14%
Cc1ccc(O)c(N=CC2=C(O)c3ccccc3C2=O)c1,-19%
COCCNC(=O)COc1ccc(OCCNC[C@@H](O)COc2ccccc2)cc1,-3%
CC1CCCC(C)N1C(=O)CSc1nc(N)c(-c2ccccc2)c(=O)[nH]1 (stereo not given),13%
Cn1c(=O)[nH]c(=O)c2c1nc(SCC(=O)O)n2CCOc1ccccc1,-5%
CCOC(=O)c1c(C)oc2nc(C)nc(N(C)Cc3ccccc3)c12,2%
CCn1c(=O)cc(OCC(=O)NCCCN2CCN(c3cccc(Cl)c3)CC2)c2ccccc21,15%
CCCCNC(=O)C1=C(N)C(C(=O)Nc2ccc(C)c(S(=O)(=O)N3CCCCC3)c2)SC1=Nc1ccc(C)cc1C (stereo not given),-19%
COc1ccc(CC(=O)Nc2cc(S(=O)(=O)N3CCOCC3)ccc2N2CCOCC2)cc1OC,-15%
O=C(COc1ccc(-n2cnnn2)cc1)Nc1ccc(F)c(F)c1,-14%
CC1CCN(C(=O)c2ccc(NC(=O)CC3SC(N4CCCC4)=NC3=O)cc2)CC1 (stereo not given),5%
O=C1CCCCCCCCCC/C(=N\O)CCCO1,-1%
CC1=C(C(=O)OCC2CCCO2)C(c2ccccc2)C2=C(CC(C)(C)CC2=O)N1 (stereo not given),4%
Cc1ccc(/C(N)=N/OC(=O)/C=C/c2ccccc2)cc1,1%
CNC(=O)Nc1cc(C)nn1C,?
O=[N+]([O-])c1c(NCCO)cc(Sc2nc3ccccc3s2)c2nonc12,14µM*
CC(=O)c1cccc(NC(=O)CCc2nc3sc4c(c3c(=O)[nH]2)CCCC4)c1,-21%

# Some of the compounds tested. The share of hits here may be higher or lower than overall.
